Screening data as filed in PubChem BioAssay.
rRNA inh HTS = selective bacterial rRNA inhibition in E. coli; E. coli WT GFP vs humanized-ribosome RFP mutants, fluorescence, 24 h; stronger effect = lower value; DMSO median 0, no signal -100; GFP signal change (wild-type ribosome), % (no concentration beside the values); 1.6% of 350,000 active; AID 720706;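 active = significant combined selectivity score with lowered wild-type GFP, culture density cut under 30%, mutant RFP and density less affected; inactive = any of these conditions unmet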; note: one replicate is shown; some compounds called inactive have numbers as strong as hits
Calb FLC = C. albicans growth modulation with fluconazole. C. albicans CaCi-2 (fluconazole-resistant clinical isolate) + fluconazole, Alamar Blue growth, 48 h. growth inhibition, % (test concentration not listed). 0.57% of 300,000 active. AID 1979;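 active = most replicates above 75%; inconclusive = exactly half above 75%; inactive = most below 75%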;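 note: all wells also contain fluconazole at 8 µg/ml as a sub-toxic cotreatment; 0% = median of DMSO wells and 100% = median of geldanamycin control wells; wells of about 8 µL received 7.5 nL stock; the first replicate is given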
ALR H2O2 inh = blocks human ALR sulfhydryl oxidase activity; purified ALR, DTT oxidation, H2O2 HRP-luminol luminescence; inhibition, % (concentration not given with the values); 3.8% of 290,000 active;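 active = mean and each replicate at 75% or more; inconclusive = only one of the two met; inactive = neither met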;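 note: stock transfer was 7.5 nL into about 7.5 µL; 0% = neutral wells and 100% = wells with inactivated enzyme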
Target sequence (P55789 whole entry, looked up): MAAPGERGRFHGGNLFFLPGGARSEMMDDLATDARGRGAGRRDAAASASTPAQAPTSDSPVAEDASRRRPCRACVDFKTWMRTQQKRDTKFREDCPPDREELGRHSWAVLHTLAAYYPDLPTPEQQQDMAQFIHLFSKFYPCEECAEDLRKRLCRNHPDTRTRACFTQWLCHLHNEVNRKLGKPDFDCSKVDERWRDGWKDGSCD
Beta apoptosis = blocks beta cell apoptosis; 0.8% of 300,000 active; INS-1E cytokine-induced death, ATP luminescence, 48 h; percent of positive-control rescue, neutral wells zero; AID 435005; protection from apoptosis, % (no concentration beside the values);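 active = all replicates at 75% or more, or half of them and the mean; inconclusive = half reach 75% but not the mean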;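 note: 0% = cytokine-treated negative control wells and 100% = positive control rescue; higher means more ATP so stronger rescue from cytokine killing; wells of about 40 µL received 100 nL stock; the first replicate is given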
LANA-H2A inh = blocks KSHV LANA binding to histone H2A/H2B | Q9QR71 | cell-free LANA-H2A/H2B peptide, fluorescence polarization | inhibition, % (test concentration not listed) | 0.6% of 320,000 active | AID 2629; in the data active = inhibition mostly above about 10%, no sharp cut-off; inactive = mostly below about 6.7%;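 note: stock transfer was 7.5 nL into about 10 µL; 0% = median of vehicle wells and 100% = median of positive control wells; one replicate is shown; the record names a cut of 25% in any replicate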
A1 inh = inhibitors of the anti-apoptotic protein A1, read as caspase activation; 0.066% of 330,000 active; MEF A1-2A-BIM cells, Caspase-Glo 3/7 luminescence, 3 h; percent of clofoctol response, vehicle zero; caspase activation, % (test concentration not listed);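 active = over half of replicate activation scores above 10%, or exactly half above 10 with the replicate mean above 10; inconclusive = replicate mean below 10 yet half the replicates above 10; inactive = over half of replicates below 10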;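 note: wells of about 30 µL received 50 nL stock; many hits fall short of the cut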
T cruzi inh = T. cruzi replication inhibition; T. cruzi beta-gal in NIH3T3, luminescence, 90 h; inhibition, % (concentration not given with the values); 1.4% of 300,000 active;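 active = mean inhibition across valid replicates above about 55%, limit read from the data; inconclusive = mean below that limit but half or more replicates reach it; inactive = mean below it, under half of replicates reach it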;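 note: signal also drops with host cell toxicity which is not excluded here; 0% = plate median of DMSO wells and 100% = zero luminescence signal; higher percent means less beta-gal luminescence so fewer parasites; stock transfer was 50 nL into about 50 µL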
Beta2AR agonist = human beta-2 adrenergic receptor agonism by FAP. Am2.2-beta2AR cells, FAP receptor internalization, flow cytometry; reference of the scale not given here. response, % (test concentration not listed). 0.43% of 340,000 active. AID 504454;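 active = response above a set limit, near 3 SD of response in nonfluorescent compounds, cut at about 42% in these data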;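 note: stock transfer was 100 nL into about 11 µL; a reference agonist was the positive control; negative values mostly stem from fluorescent compounds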
Target sequence (P07550 whole entry, looked up): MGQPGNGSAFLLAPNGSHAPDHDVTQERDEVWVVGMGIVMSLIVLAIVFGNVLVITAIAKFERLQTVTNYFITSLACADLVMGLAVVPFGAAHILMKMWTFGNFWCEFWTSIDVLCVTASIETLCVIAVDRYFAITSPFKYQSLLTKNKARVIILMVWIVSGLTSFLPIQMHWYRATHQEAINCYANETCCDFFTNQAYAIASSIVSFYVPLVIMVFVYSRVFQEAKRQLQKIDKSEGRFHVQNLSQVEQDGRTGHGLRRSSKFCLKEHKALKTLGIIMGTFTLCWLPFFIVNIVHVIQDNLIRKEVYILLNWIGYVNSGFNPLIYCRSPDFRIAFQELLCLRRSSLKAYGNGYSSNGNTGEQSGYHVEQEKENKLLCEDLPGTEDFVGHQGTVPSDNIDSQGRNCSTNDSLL
rRNA inh HTS OD600 = recorded beside rRNA inh HTS, whose call it bears; OD600 change, %; measured here: OD600 growth;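 optical density of the mix in the first replicate; 0 = DMSO median and -100 = no signal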
rRNA inh HTS RFP = second read-out of rRNA inh HTS, no call of its own (marks repeat the call); RFP signal change, %; measured here: RFP humanized mutant strains;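 first replicate; 0 = DMSO median and -100 = no signal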
Numbers without * were called inactive; ? = inconclusive; nt = not tested or not shown.

Values in the order: rRNA inh HTS RFP	rRNA inh HTS OD600	Beta2AR agonist	rRNA inh HTS	A1 inh	T cruzi inh	Calb FLC	Beta apoptosis	LANA-H2A inh	ALR H2O2 inh
COc1cc(/C=N/N2CCN(c3ccccc3)CC2)cc(OC)c1OC(C)=O
→ 2.6	8.9	-4.5	7.7	0.3	0.2	-2.3	1.4	-0.7	97.4*
O=C(NCc1ccco1)C1(c2ccccc2)CCCC1
→ -0.8	-2.6	-1.0	2.8	-0.2	0.3	-7.7	3.7	1.3	-6.1
FC(F)(F)c1cnc(COc2cc(Cl)cc(Cl)c2)c(Cl)c1
→ 1.6	12.7	-0.6	8.0	0.5	-6.7	-0.9	2.6	11.8	-0.3
CCCn1c(=O)[nH]c(=O)c2c1nc(-c1ccc(OC(F)F)c(OC)c1)n2CCOC
→ nt	nt	0.3	nt	0.5	-3.4	nt	1.8	7.3	-23.7
O=C(COc1ccc2ccc(=O)oc2c1)Nc1c(Cl)cccc1C(F)(F)F
→ -0.2	4.3	-9.1	2.0	-1.1	3.4	22.7	0.1	-1.0	-5.3
Cc1ccccc1C(=O)c1cccn1CC(=O)O
→ nt	nt	-1.6	nt	0.0	-16.2	?	-4.1	-3.4	-13.4
CCCCC(=O)Nc1cc(C)c(NC(=O)c2ccco2)cn1
→ -0.4	-2.6	-0.6	-0.1	0.5	9.3	-5.7	nt	-0.7	0.7
COc1ccc(/C=C/C(=O)OC2CCCN(C)C2)cc1 (centres undefined)
→ 3.5	2.5	-2.0	1.0	-0.3	-1.3	5.5	-8.7	-3.3	-2.4
COc1cnc(SCc2c(Cl)cccc2Cl)nc1Cl
→ -1.7	10.1	0.7	-8.3	0.1	17.0	-7.9	-5.6	-6.9	8.5
Nc1[nH]ncc1-c1ccc(F)cc1
→ 0.8	4.5	-1.6	4.8	-0.2	-0.1	-28.0	-11.1	-3.4	9.5

Full records as entered above.
`CCCCC(=O)Nc1cc(C)c(NC(=O)c2ccco2)cn1` across the screens: rRNA inh HTS RFP = -0.4; rRNA inh HTS OD600 = -2.6; Beta2AR agonist = -0.6; rRNA inh HTS = -0.1; A1 inh = 0.5; T cruzi inh = 9.3; Calb FLC = -5.7; Beta apoptosis = nt; LANA-H2A inh = -0.7; ALR H2O2 inh = 0.7
`Nc1[nH]ncc1-c1ccc(F)cc1` across the screens: rRNA inh HTS RFP = 0.8; rRNA inh HTS OD600 = 4.5; Beta2AR agonist = -1.6; rRNA inh HTS = 4.8; A1 inh = -0.2; T cruzi inh = -0.1; Calb FLC = -28.0; Beta apoptosis = -11.1; LANA-H2A inh = -3.4; ALR H2O2 inh = 9.5
`COc1ccc(/C=C/C(=O)OC2CCCN(C)C2)cc1` (centres undefined) across the screens: rRNA inh HTS RFP = 3.5; rRNA inh HTS OD600 = 2.5; Beta2AR agonist = -2.0; rRNA inh HTS = 1.0; A1 inh = -0.3; T cruzi inh = -1.3; Calb FLC = 5.5; Beta apoptosis = -8.7; LANA-H2A inh = -3.3; ALR H2O2 inh = -2.4

(cont.)
Values in the order: rRNA inh HTS RFP	rRNA inh HTS OD600	Beta2AR agonist	rRNA inh HTS	A1 inh	T cruzi inh	Calb FLC	Beta apoptosis	LANA-H2A inh	ALR H2O2 inh
COc1ccc(N/C(=C(/C(Cl)=C(Cl)Cl)[N+](=O)[O-])n2nnc3ccccc32)cc1OC
→ nt	nt	nt	nt	0.0	-3.0	4.0	-6.7	-1.9	-13.2
Cc1c(C(=O)N/N=C/c2ccccc2)sc(=S)n1C
→ nt	nt	-14.1	nt	1.3	1.3	2.2	-6.4	6.1	15.9
C=CCOc1c(Br)cc(/C=C2\SC(=Nc3ccccc3)NC2=O)cc1OC
→ 2.3	8.4	15.7	12.6	-0.1	18.7	2.3	8.3	-4.5	-13.6
S=C(NCc1ccco1)N1CCN(c2ccccn2)CC1
→ -0.6	3.5	-11.1	11.0	-0.5	3.1	5.3	3.1	2.4	-5.7
Brc1ccc(-c2csc(NC3=NCCCCC3)n2)cc1
→ nt	nt	-8.8	nt	-0.4	23.3	7.2	-1.2	-2.0	-3.2
CCCCC(=O)Nc1ccc(NC(=O)c2cccs2)cn1
→ nt	nt	-8.3	nt	-0.4	8.1	?	-3.0	-1.0	-19.9
COC(=O)c1c(NC(=O)c2ccc(S(=O)(=O)N3CCOCC3)cc2)sc2c1CCN(C(C)C)C2
→ 1.3	-1.0	6.1	-6.0	1.3	16.5	-9.3	-0.7	1.6	6.2
Cc1ccc(C(=O)C(C)N(C(=O)c2ccc(Cl)cc2Cl)N2C(=O)CCCC2=O)cc1 (centres undefined)
→ 1.6	6.1	-4.9	5.0	0.0	-8.5	0.3	-12.5	0.1	-12.3
CC1(OC(=O)c2ccco2)C(=O)C=C2C=C(c3ccc(C#N)cc3)OC=C2C1=O (centres undefined)
→ nt	nt	nt	nt	0.7	-14.1	-3.6	-3.9	-5.5	-2.2
Cc1cc(Cl)ccc1N(CC(=O)NCc1ccc2c(c1)OCO2)S(C)(=O)=O
→ -0.8	4.3	-0.6	2.6	0.0	-11.6	-31.3	1.7	-2.4	-4.1
CSC(=NCc1ccco1)NC#N
→ nt	nt	8.6	nt	-0.5	-11.4	-15.8	-3.2	0.6	-16.0
CCOc1cc(-c2nc(C)c(C(C)=O)n2O)ccc1OCC(=O)Nc1cccc(C)c1
→ 1.8	-6.1	4.2	-2.4	0.5	-7.0	?	-0.8	2.2	65.2
COC(=O)c1sc(NC(=O)COc2c(C)cccc2C)nc1C
→ 3.3	5.7	5.9	-6.1	1.5	-11.8	17.6	-2.5	1.0	38.4
CC(=O)c1cnc2cc(-c3cccc(Br)c3)nn2c1C
→ 2.8	17.7	-16.5	10.0	-3.9	9.0	64.5	-3.7	3.8	-2.5
CCc1ccc(NC(=O)CCc2nnc3ccc(N4CCC5(CC4)OCCO5)nn23)cc1
→ -1.9	5.9	-7.2	0.8	1.6	-4.4	-12.5	0.7	-2.3	-3.6
CN(CCOc1ccccc1)CC(O)COc1ccccc1 (centres undefined)
→ 1.6	-0.5	6.2	6.0	-0.3	29.1	-1.0	-5.7	-1.4	-9.9
Cc1cccc(NC(=O)CN2CCCN(S(=O)(=O)c3ccc(Br)s3)CC2)c1
→ nt	nt	3.4	nt	1.7	3.7	3.0	-7.1	2.7	-8.8
CC(=O)C1=C(c2ccccc2)NC(=O)NC1c1ccc(O)c(Cl)c1 (centres undefined)
→ 4.1	-5.0	-6.7	7.1	0.3	-3.4	23.1	-4.7	-4.1	1.6
Cc1ccccc1NS(=O)(=O)c1cc(C(=O)NCCC2=CCCCC2)ccc1C
→ 6.7*	-8.2*	2.8	-17.1*	0.0	15.8	28.6	7.0	-0.6	-2.0
CCc1nnc(NC2=NCCC2)s1
→ nt	nt	-6.9	nt	1.2	-10.5	nt	-2.1	0.4	-0.1
CCOC(=O)C(C(=O)Nc1ccc(C)cc1)C1CCCCC1 (centres undefined)
→ nt	nt	-2.0	nt	0.3	-5.2	-19.4	-0.7	-4.4	-27.1
Cc1ccc(C(=O)Nc2ccccc2C(=O)N2CC3(C)CC2CC(C)(C)C3)cc1 (centres undefined)
→ nt	nt	13.5	nt	-1.7	9.2	7.4	nt	-0.5	-5.0
CCC1(CC)C(=O)N(C)C(=O)NC1=NCc1ccccc1
→ nt	nt	4.6	nt	0.6	-1.8	18.3	-2.7	5.0	-3.7
N=c1c(C(=O)NCCN2CCOCC2)cc2c(=O)n3ccccc3nc2n1CCCN1CCOCC1
→ 7.6	-0.3	-3.5	22.4	-0.2	-13.3	-19.5	-2.9	0.3	-0.2
CCN(CC)CCCN=C1N[C@@H](c2cccc(C(F)(F)F)c2)C(C(=O)OC)=C(C)N1CC
→ 4.4	8.2	3.7	9.8	-0.3	nt	nt	-0.6	-3.8	6.7
COc1cccc(NC(=O)COc2ccc(N3CC(C(=O)NCC(C)C)CC3=O)cc2)c1 (centres undefined)
→ nt	nt	6.9	nt	-0.4	-6.7	12.7	4.2	1.1	-13.6
COc1ccc(-c2cc(C(=O)N3CCN(c4ccccn4)CC3)c3ccccc3n2)cc1
→ nt	nt	14.8	nt	-0.2	1.6	-26.9	2.9	-3.4	4.5
CCOc1ccc(/C=N/NC(=O)c2ccc(Cn3cc(Br)cn3)o2)cc1
→ 6.0	2.8	-7.2	-10.1	-2.7	-1.0	0.1	-1.1	0.8	-4.1
CCOc1ccc2nc(SCC(=O)c3ccc(C)s3)sc2c1
→ nt	nt	-0.3	nt	-0.9	6.0	26.1	nt	1.8	3.7
Cc1cc(N)n2ncc(-c3ccc(F)cc3)c2n1
→ nt	nt	-3.5	nt	0.0	-21.0	-10.7	0.5	-0.2	37.9
Cc1csc2nc(SCC(=O)Nc3ccccc3F)[nH]c(=O)c12
→ 0.2	19.8	5.0	10.6	0.0	-17.4	62.8	8.3	28.3*	-6.0
O=C(c1ccc(Cl)c(S(=O)(=O)N2CCCCCC2)c1)N1CCN(CCO)CC1
→ nt	nt	-6.6	nt	0.3	-4.7	-2.1	-0.9	0.7	3.9
O=c1[nH]c2ccccc2nc1Cc1ccc(Cl)cc1
→ -1.0	7.8	-16.9	4.9	-1.1	14.7	-0.7	3.7	1.4	-6.8
COc1cccc2c1cc1c(=O)n(CC(=O)NCCCc3ccccc3)nc(C)n12
→ nt	nt	2.8	nt	0.2	-2.5	-0.9	-3.3	-0.7	-4.7
O=C1NN(c2ccccc2)C(=O)/C1=C/c1coc2ccccc2c1=O
→ nt	nt	2.0	nt	-0.5	10.1	-32.2	2.7	5.2	97.3*
COc1ccc(CN2CCN(C(=O)c3ccc4nc(N5CCOCC5)sc4c3)CC2)c(OC)c1OC
→ -2.0	1.2	-8.2	-3.7	1.0	1.1	35.3	-0.5	1.1	-4.3
COc1ccc(NS(=O)(=O)c2ccc3c(c2)Cc2ccccc2-3)cn1
→ nt	nt	-14.6	nt	1.2	-16.0	2.0	3.0	-1.2	-1.1
Cc1cc(C)c(C#N)c(N2CCN(C(=O)C3COc4ccccc4O3)CC2)n1 (centres undefined)
→ nt	nt	3.8	nt	-0.4	nt	nt	0.9	-1.4	nt
COC(=O)COc1ccsc1C(=O)OC
→ -5.8	4.6	5.9	15.1	-0.3	-20.3	0.0	-4.0	-3.1	-9.0
CCn1cc(C(=O)NC2CCC(C)CC2)c(=O)c2cc(S(=O)(=O)N3CCCCC3)ccc21 (centres undefined)
→ nt	nt	nt	nt	0.0	nt	nt	16.0	-3.6	-8.0
O=C(NCc1ccco1)c1ccc2ccccc2c1
→ nt	nt	3.5	nt	-0.8	-9.9	1.2	-4.0	4.5	1.5
O=S(=O)(c1cccc(C(F)(F)F)c1)N1CCC(c2nc3ccccc3[nH]2)CC1
→ -1.6	-0.5	-13.6	2.2	0.2	4.3	1.8	19.1	-1.9	1.0

Not all compounds are listed; rates above refer to the full screens.
